# ID4 SMM – binders of human ID4 protein, primary screen, biochemical, small molecule microarray, single point; DNA-binding protein inhibitor ID-4 (Homo sapiens), P47928; Flag-ID4 binding, fluorescence F/B; calls only; 31,000 compounds, 1.2% hits; AID 624137, 2012;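 active = spot signal over background at p below 0.07 in all four prints; compounds were printed on slides so no solution concentration is given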;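 note: a binder raises fluorescence above local background on the spot; about 2 pmol printed per array spot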
# Target sequence (P47928 whole entry, looked up): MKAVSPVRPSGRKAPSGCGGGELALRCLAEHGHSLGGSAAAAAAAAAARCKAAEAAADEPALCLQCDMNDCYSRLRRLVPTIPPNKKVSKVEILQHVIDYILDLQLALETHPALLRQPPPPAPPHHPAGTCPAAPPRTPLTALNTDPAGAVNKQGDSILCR
# Calls only; i = inactive; + = active, no number. The list is partial; count on the stated rates, not on these rows.
SMILES,ID4 SMM
S=C(NCC1CCCO1)Nc1cccc(Cn2cc(Cl)cn2)c1 (centres undefined),i
O=C(Cn1cc(C(=O)c2ccccc2F)c2ccccc21)NCC1CCCO1 (centres undefined),i
COc1ccccc1-c1cnc2c(c1)C(=O)N([C@@H](C)CO)C[C@@H](C)[C@H](CN(C)C(=O)CC1CC1)O2,i
C[C@H](CO)N1C[C@H](C)[C@@H](CN(C)C(=O)CN(C)C)Oc2ncc(-c3ccc(F)cc3)cc2C1=O,i
COc1ccccc1NC(=O)N[C@H]1CC[C@@H](CC(=O)NCc2ccc(Cl)c(Cl)c2)O[C@@H]1CO,i
C[C@@H]1CN([C@@H](C)CO)C(=O)CCCn2cc(nn2)CO[C@@H]1CN(C)Cc1cccc(C(F)(F)F)c1,i
CCCC#Cc1ccc2c(c1)O[C@H](CN(C)S(C)(=O)=O)[C@H](C)CN([C@@H](C)CO)S2(=O)=O,i
Cc1ccc2ccc(S(=O)(=O)NCc3ccccn3)cc2c1,i
CC(C)C#Cc1ccc2c(c1)O[C@H](CN(C)CC1CC1)[C@H](C)CN([C@@H](C)CO)S2(=O)=O,i
COc1ccc(S(=O)(=O)NCc2ccccc2)cc1-c1nnc2c3ccccc3c(C)nn12,i
Cc1ccccc1N(CC(=O)O)S(=O)(=O)c1ccc(Cl)cc1,i
Cc1ccc(NC(=O)CSc2nnc(C)n2-c2ccc(F)cc2)cc1Cl,i
COc1cccc(-c2cnc3c(c2)C(=O)N([C@H](C)CO)C[C@@H](C)[C@@H](CN(C)Cc2cccnc2)O3)c1,i
C[C@H]1CN([C@@H](C)CO)C(=O)c2cc(C3=CCCC3)cnc2O[C@H]1CN(C)C(=O)c1ccc(F)cc1,i
Cc1cc(Cl)ccc1NC(=O)COc1ccc(C(=O)Nc2ccc(F)cc2)cc1,i
CCc1cc2c(SCC(N)=O)ncnc2s1,i
C(=C\c1nn2c(Cn3cnc4ccccc43)nnc2s1)/c1ccccc1,i
COc1ccccc1NC(=O)N[C@H]1CC[C@@H](CC(=O)N2CCC(Cc3ccccc3)CC2)O[C@H]1CO,i
COCC(=O)N[C@@H]1CC[C@@H](CC(=O)NCc2ccccc2OC)O[C@H]1CO,i
Cc1cccc(OCC(=O)Nc2ccc(C(=O)Nc3ccccc3C(=O)O)cc2)c1,i
CCNC(=O)C[C@@H]1CC[C@H](NC(=O)C2CCC2)[C@H](CO)O1,i
COc1ccccc1C(=O)N(Cc1nc(-c2cccc(C)c2)no1)C(C)C,i
O=C(N[C@H]1CC[C@@H](CC(=O)N2CCN(c3ccccc3)CC2)O[C@@H]1CO)c1ccncc1,i
CCC(=O)N(C)C[C@H]1Oc2ncc(C3=CCCC3)cc2C(=O)N([C@H](C)CO)C[C@@H]1C,i
O=C(Cn1cnc2ccccc2c1=O)Nc1ccc(F)cc1F,i

# Going on with the list:
SMILES,ID4 SMM
Cc1nc(S(=O)(=O)N2CCN(Cc3ccc(OCCO)cc3)CC2)cn1C,i
O=C(CSc1nnc(-c2ccc(Cl)cc2)o1)Nc1cc(C(F)(F)F)ccc1Cl,i
CNC[C@H]1Oc2cc(C#Cc3ccccc3)ccc2S(=O)(=O)N([C@@H](C)CO)C[C@@H]1C,i
C[C@H](NC(=O)C[C@@H]1CC[C@H](NC(=O)C2CCC2)[C@H](CO)O1)c1ccccc1,i
O=C(Nc1cc(F)ccc1F)N[C@@H]1C=C[C@@H](CC(=O)N2CCc3ccccc3C2)O[C@H]1CO,i
O=C(NCc1cccnc1)C(=O)Nc1cccc(Cl)c1Cl,i
C[C@@H]1CN([C@@H](C)CO)C(=O)c2cc(-c3ccncc3)cnc2O[C@H]1CN(C)C,+
CCC(C)c1c(O)nc(SCC(=O)Nc2ccc(Cl)cc2)[nH]c1=O (centres undefined),i
COc1ccc(S(=O)(=O)N(C)CC(=O)Nc2ccc(F)c(Cl)c2)cc1C,i
O=c1c2ccccc2nc(-c2ccco2)n1CCN1CCOCC1,i
COc1ccccc1CC(=O)Nc1cc(Cl)ccc1C(=O)O,i
O=C(CC1CC1)Nc1ccc2c(c1)[C@H]1C[C@H](CC(=O)N3CCCCC3)O[C@@H](CO)[C@H]1O2,i
O=C1[C@H](CCC(O)c2ccc(F)cc2)[C@@H](c2ccc(O)cc2)N1c1ccc(F)cc1 (some centres undefined),i
CO[C@H](CN(C)Cc1nccs1)[C@@H](C)CN([C@H](C)CO)S(=O)(=O)c1ccc(C)cc1,i
Clc1ccc(Cn2ncc3c(NCc4cccnc4)ncnc32)cc1,i
Cc1ccccc1-c1nnc(SCC(=O)Nc2cc(C(F)(F)F)ccc2N2CCOCC2)o1,i
Cc1ccc(F)cc1NC(=O)CSc1nnnn1-c1ccccc1,i
CC(C)c1cc(Br)ccc1NC(=O)CSc1n[nH]c(-c2ccc(Cl)cc2)n1,i
CN(C)c1ccc2c(c1)[C@@H]1C[C@@H](CC(=O)NCc3ccc(-c4ccccc4)cc3)O[C@H](CO)[C@@H]1O2,i
C[C@H]1CN([C@@H](C)CO)C(=O)c2cc(C#Cc3ccccn3)cnc2O[C@H]1CN(C)Cc1ccccc1,i
CN(Cc1cc(Br)cc(Br)c1N)C1CCCCC1,i
CS(=O)(=O)N(CC(=O)Nc1c(F)cccc1F)c1ccc(Oc2ccccc2)cc1,i
COc1cc(CNC23CC4CC(C)(CC(C)(C4)C2)C3)cc(Br)c1OCC(N)=O,i
CCN(CC(=O)Nc1ccccc1OC)S(=O)(=O)c1ccc2ccccc2c1,i
Cc1nc(C)c(C(=O)C2C(=O)C(=O)N(CCCN3CCOCC3)C2c2ccncc2)s1 (centres undefined),i

# Remaining list, next part
SMILES,ID4 SMM
CC(C)C#Cc1ccc2c(c1)O[C@@H](CN(C)CC1CC1)[C@@H](C)CN([C@@H](C)CO)S2(=O)=O,i
CCCc1c(C(=O)OCC)[nH]c2c1C(=O)CC(C)(C)C2,i
COc1cc(F)ccc1S(=O)(=O)NC1CC(C)(C)NC(C)(C)C1,i
COc1ccc(OC(C)C(=O)Nc2ccncc2)cc1 (centres undefined),i
CCCCn1cc(C2CC(=O)N(c3ccc(Br)cc3)C2=O)c2ccccc21 (centres undefined),i
COc1nc(NCCc2ccc(OC)c(OC)c2)nc(OC)n1,i
Cc1ccc2nc(-c3cccc(NC(=O)COc4ccccc4C)c3)oc2c1,i
COc1cccc(NC(=O)CC2NC3CCCCC3NC2=O)c1 (centres undefined),i
CCn1c(SCC(=O)N2c3ccccc3Sc3ccccc32)nnc1-c1ccncc1,i
COCC(=O)N[C@H]1CC[C@@H](CC(=O)NCc2ccccc2OC)O[C@H]1CO,i
C[C@H](CO)N1C[C@H](C)[C@H](CN(C)Cc2ccccc2)Oc2ncc(C#CC3(O)CCCC3)cc2C1=O,i
CCCC#Cc1cnc2c(c1)C(=O)N([C@@H](C)CO)C[C@@H](C)[C@@H](CN(C)Cc1cccnc1)O2,i
C[C@H]1CN([C@@H](C)CO)C(=O)c2cc(C3=CCCCC3)cnc2O[C@@H]1CN(C)Cc1cccc(F)c1,i
COc1ccc(-c2nc3cc(NC(=O)COc4ccc([N+](=O)[O-])cc4)ccc3o2)cc1Cl,i
COc1ccc(NC(=O)CN(c2ccc(F)c(Cl)c2)S(C)(=O)=O)cc1Cl,i
Cc1onc(-c2c(F)cccc2Cl)c1C(=O)NCC1COc2ccccc2O1 (centres undefined),i
Cn1nnnc1SCC(=O)Nc1ccc([N+](=O)[O-])cc1,i
CCn1c(SCC(=O)Nc2ccc(C(N)=O)cc2)nnc1-c1ccco1,i
CN(C)C(=O)C[C@H]1C=C[C@@H](NC(=O)C2CCC2)[C@H](CO)O1,i
Cc1ccccc1-c1ccc2c(c1)O[C@@H](CN(C)C)[C@@H](C)CN([C@H](C)CO)S2(=O)=O,i
NC(N)=NC(N)=Nc1cccc(Cl)c1,i
C[C@H]1CN([C@@H](C)CO)C(=O)c2cc(C#Cc3ccncc3)cnc2O[C@@H]1CN(C)CC1CCCC1,i
CNC[C@H]1Oc2cc(-c3ccc(C)cc3)ccc2S(=O)(=O)N([C@H](C)CO)C[C@@H]1C,i
COc1ccccc1-c1cnc2c(c1)C(=O)N([C@@H](C)CO)C[C@H](C)[C@H](CN(C)Cc1cccnc1)O2,i
O=C(CSc1nnc(-c2ccncc2)o1)Nc1ccccc1,i

# (list continues)
SMILES,ID4 SMM
COc1ccc(C)cc1S(=O)(=O)N(C)CC(=O)Nc1cccc(F)c1,i
C[C@@H]1CN([C@H](C)CO)C(=O)c2cc(Br)cnc2O[C@H]1CN(C)C(=O)C1CCOCC1,i
COc1cccc(-c2cc(C(F)(F)F)n3nc(C(=O)Nc4c(C#N)cnn4C)cc3n2)c1,i
COC(=O)C[C@H]1C[C@H]2c3cc(N(C)C)ccc3O[C@H]2[C@H](CO)O1,i
COc1cc(S(=O)(=O)n2cnc3ccccc32)c(OC)cc1Cl,i
COc1ccccc1C#Cc1ccc2c(c1)O[C@@H](CN(C)C(C)=O)[C@@H](C)CN([C@@H](C)CO)S2(=O)=O,i
O=C(C[C@@H]1C=C[C@H](NC(=O)C2CCC2)[C@H](CO)O1)NC1CCCCC1,i
C=CCn1c2ccccc2n2nc(CCC(=O)O)c(=O)nc12,i
CS(=O)(=O)N1[C@H](CO)[C@H](c2ccccc2)[C@@H]1C#N,i
O=C(CCNc1ccc2c(c1)oc1ccccc12)c1ccc([N+](=O)[O-])cc1,i
CCOC(=O)c1ccc(NC(=O)Cn2cnc3ccccc3c2=O)cc1,i
CCc1cc(=O)oc2cc(OCc3cc(C(=O)OC)oc3C)ccc12,i
Cc1ccc(SCc2[nH]n(-c3nc4ccccc4s3)c(=O)c2C=NCc2ccco2)cc1,i
CC(C)[C@H](C)NC(=O)N(C)C[C@H]1OCc2ccccc2-c2ccccc2C(=O)N([C@@H](C)CO)C[C@@H]1C,i
COc1ccccc1-c1ccc2c(c1)O[C@@H](CN(C)C(=O)c1ccncc1)[C@H](C)CN([C@@H](C)CO)S2(=O)=O,i
CC(=O)N(C)C[C@H]1Oc2ncc(-c3ccccc3C)cc2C(=O)N([C@H](C)CO)C[C@@H]1C,i
COc1cccc(CNC(=O)C[C@@H]2C=C[C@H](NC(C)=O)[C@H](CO)O2)c1,i
COCC(=O)Nc1ccc2c(c1)[C@@H]1C[C@@H](CC(=O)O)O[C@@H](CO)[C@@H]1O2,i
Cc1ccc(S(=O)(=O)Nc2ccc(C(=O)Nc3cccc(N(C)S(C)(=O)=O)c3)cc2)cc1,i
Cc1nc(SCC(=O)Nc2ccnc3ccccc23)n[nH]1,i
Cc1ccc(-n2c(SCC(=O)N(C)c3ccccc3)nc3nc4c(cc3c2=O)COC(C)(C)C4)cc1,i
Cc1nn2c(-c3cccc(NC(=O)CN4CCCCC4)c3)nnc2c2ccccc12,i
CC(=O)c1cccc(NC(=O)CCN2C(=O)C3C4CCC(C4)C3C2=O)c1 (centres undefined),i
C[C@H]1CN([C@@H](C)CO)C(=O)c2ccccc2-c2ccccc2CO[C@H]1CN(C)Cc1ccc(O)cc1,i
COc1cc(CN2CCN(Cc3ccco3)CC2)c([N+](=O)[O-])cc1OC,i

# Structures above that contain an NH in an aromatic ring:
SMILES,ID4 SMM
CCC(C)c1c(O)nc(SCC(=O)Nc2ccc(Cl)cc2)[nH]c1=O (centres undefined),i
CC(C)c1cc(Br)ccc1NC(=O)CSc1n[nH]c(-c2ccc(Cl)cc2)n1,i
CCCc1c(C(=O)OCC)[nH]c2c1C(=O)CC(C)(C)C2,i
Cc1ccc(SCc2[nH]n(-c3nc4ccccc4s3)c(=O)c2C=NCc2ccco2)cc1,i
Cc1nc(SCC(=O)Nc2ccnc3ccccc23)n[nH]1,i

# Compounds listed so far with a furan ring, fused or not (six):
SMILES,ID4 SMM
O=c1c2ccccc2nc(-c2ccco2)n1CCN1CCOCC1,i
CCn1c(SCC(=O)Nc2ccc(C(N)=O)cc2)nnc1-c1ccco1,i
O=C(CCNc1ccc2c(c1)oc1ccccc12)c1ccc([N+](=O)[O-])cc1,i
CCc1cc(=O)oc2cc(OCc3cc(C(=O)OC)oc3C)ccc12,i
Cc1ccc(SCc2[nH]n(-c3nc4ccccc4s3)c(=O)c2C=NCc2ccco2)cc1,i
COc1cc(CN2CCN(Cc3ccco3)CC2)c([N+](=O)[O-])cc1OC,i

# (cont.)
SMILES,ID4 SMM
CO[C@@H]1CN(C)C(=O)c2ccc(NC(=O)Nc3ccccc3Cl)cc2OC[C@@H](C)N(C)C[C@H]1C,i
COc1ccccc1CC(=O)Nc1ccccc1C(=O)NC(C)(C)C,i
COc1ccc(NC(=O)CSC2CC(=O)N(c3cc(Cl)cc(Cl)c3)C2=O)cc1 (centres undefined),i
Cc1ccc(CN(CC(=O)O)S(=O)(=O)c2ccc(Br)cc2)cc1,i
CC(C)(C)S(=O)(=O)/C(C#N)=C/c1sccc1C1OCCO1,i
COCC#Cc1ccc2c(c1)O[C@H](CN(C)Cc1ccccc1)[C@@H](C)CN([C@@H](C)CO)S2(=O)=O,i
COc1ccc(NC(=O)N[C@@H]2CC[C@H](CC(=O)NCc3ccccn3)O[C@H]2CO)cc1,i
COCC(=O)Nc1ccc2c(c1)[C@@H]1C[C@H](CC(=O)NCc3ccc(Cl)cc3)O[C@@H](CO)[C@@H]1O2,i
C[C@@H]1CN([C@H](C)CO)S(=O)(=O)c2ccc(C3=CCCC3)cc2O[C@@H]1CN(C)C,i
CS(=O)(=O)N(CC(=O)Nc1ccc(Oc2ccccc2)cc1)c1ccc(F)c(Cl)c1,i
CN(C)/C=C/C=C1C(=O)CCCC1=O,i
COC(=O)C[C@H]1C=C[C@H](NC(=O)Nc2ccc(C(F)(F)F)cc2)[C@H](CO)O1,i
C[C@@H]1CN([C@@H](C)CO)C(=O)c2cc(NC(=O)C3CC3)ccc2O[C@@H]1CN(C)CC1CCCCC1,i
Cc1ccnc(NC(=O)Cn2cnc3c2c(=O)n(C)c(=O)n3C)n1,i
CCOc1ccc2nc(SCC(=O)Nc3c(C)cccc3C)[nH]c2c1,i
Cc1cc(C)c(NC(=O)CSc2nc3ccc(NC(=O)c4ccccc4C)cc3s2)c(C)c1,i

# Screening data as filed in PubChem BioAssay.
